D2 PAM: human D2 receptor positive allosteric modulation | P14416 | actives 0.23% (n = 360,000) | potentiation, % (test concentration not listed) | AID 624464 | DiscoveRx D2 beta-arrestin cells, luminescence, 90 min; 100% = 57 uM dopamine signal; active = potentiation of 50% or more; inconclusive = 30% to 50%; inactive = 30% or less;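 note: compound concentration not given in the record; tested on top of an EC20 dose of dopamine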
Target sequence (P14416 whole entry, looked up): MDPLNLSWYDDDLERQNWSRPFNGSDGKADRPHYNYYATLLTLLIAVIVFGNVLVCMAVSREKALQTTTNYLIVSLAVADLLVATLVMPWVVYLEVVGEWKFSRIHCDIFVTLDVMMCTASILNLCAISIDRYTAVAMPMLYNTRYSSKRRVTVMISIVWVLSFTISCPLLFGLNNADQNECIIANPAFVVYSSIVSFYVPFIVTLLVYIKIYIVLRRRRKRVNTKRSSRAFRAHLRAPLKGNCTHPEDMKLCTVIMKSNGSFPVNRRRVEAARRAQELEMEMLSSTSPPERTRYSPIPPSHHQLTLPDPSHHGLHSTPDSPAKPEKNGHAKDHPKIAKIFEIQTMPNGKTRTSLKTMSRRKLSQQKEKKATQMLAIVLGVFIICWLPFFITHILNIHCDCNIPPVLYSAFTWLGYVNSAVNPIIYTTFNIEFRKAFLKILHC
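D2 cells co-treated with compound plus 50 nM dopamine (EC20) for 90 min at 37 deg C to detect potentiation. Beta-arrestin recruitment was read as enzyme-fragment luminescence after 1 h at ambient temperature. Full response was set by 57 uM dopamine.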
D2 agonist: agonists of human D2 dopamine receptor (beta-arrestin); P14416; DiscoveRx PathHunter D2 beta-arrestin, luminescence, 90 min; 100% = 57 uM dopamine signal; activation, % (no concentration beside the values); actives 0.084% (n = 360,000); AID 624465; in the data active = activation above about 40%; inconclusive = about 15% to 40%; inactive = below about 15%; note: compound concentration not given in the record; the text of the record calls up to 30% inactive
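DiscoveRx PathHunter D2 beta-arrestin cells (2,100/well) attached overnight, then compound-stimulated 90 min at 37 C in HBSS/10 mM HEPES/0.1% Tween-20 buffer; beta-galactosidase complementation read by luminescence after 1 h at ambient temperature. Dopamine 57 uM final (EC100) as control.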
Six1-Eya2 blk: inhibitors of human Six1/Eya2 interaction | actives 0.56% (n = 360,000) | AlphaScreen GST-Six1/His-Eya2 binding, biochemical; active compounds read low; control for the full effect not named in the record | activity change, % (no concentration beside the values); in the data active = activity change below about -65%; inconclusive = about -30% to -65%; inactive = above about -30%; note: % is set by controls: 0 for no effect and ±100 for the full control effect
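Homogeneous AlphaScreen proximity assay pairing GST-Six1 with His-tagged Eya2 (added as 5X mix: 250 nM and 500 nM) in 50 mM Tris pH 8.0, 300 mM NaCl, 1 mM TCEP. Glutathione donor and nickel acceptor beads; 1 h, 37 °C, dark.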
TRPML1 blocker: inhibitors of human TRPML1 channel. Q9GZU1. TRPML1-inducible cells, Ca2+ dye fluorescence, FDSS; active compounds read low; inhibition of EC80 agonist-evoked calcium signal. activity change, negative = inhibition, % (test concentration not listed). actives 0.02% (n = 390,000). AID 624415; in the data active means activity change below about -50%; inconclusive means about -30% to -50%; inactive means above about -30%;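 note: stimulus is agonist 54-4 at its EC80 concentration; % is set by controls: 0 for no effect and ±100 for the full control effect; compound concentration not given in the record; the text of the record puts the active cut at -80%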
Target sequence (Q9GZU1 whole entry, looked up): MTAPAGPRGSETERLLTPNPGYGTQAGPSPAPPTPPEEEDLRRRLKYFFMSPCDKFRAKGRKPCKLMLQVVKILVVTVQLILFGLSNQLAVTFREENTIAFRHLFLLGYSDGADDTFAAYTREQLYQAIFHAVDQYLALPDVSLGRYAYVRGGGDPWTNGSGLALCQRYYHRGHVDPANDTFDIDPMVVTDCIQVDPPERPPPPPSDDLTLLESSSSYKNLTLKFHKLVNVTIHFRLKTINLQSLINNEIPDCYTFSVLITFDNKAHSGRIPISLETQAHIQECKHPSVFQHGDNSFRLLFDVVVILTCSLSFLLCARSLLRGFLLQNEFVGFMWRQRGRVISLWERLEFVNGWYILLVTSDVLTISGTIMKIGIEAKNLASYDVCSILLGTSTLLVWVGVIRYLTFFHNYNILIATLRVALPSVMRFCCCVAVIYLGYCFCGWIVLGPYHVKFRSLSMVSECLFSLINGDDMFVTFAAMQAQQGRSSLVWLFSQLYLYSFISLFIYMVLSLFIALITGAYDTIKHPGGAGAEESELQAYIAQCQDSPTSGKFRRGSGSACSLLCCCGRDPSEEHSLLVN
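Tet-induced TRPML1-DL cells loaded with Ca8 no-wash calcium dye were read kinetically on FDSS. Compound addition was followed by EC80 agonist 54-4 (4 uM final); inhibition was read over 110 s.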
PINK1 expr mod: changes PINK1 expression; actives 0.2% (n = 410,000); Potency, µM (titrated, usually from 76.6 µM), without a hit: top-dose activation (PINK1 increase), hits mostly activators; PINK1 immunofluorescence, high-content cytometry, 24 h; active = well fitted activation curve with a large enough effect; inconclusive = small, poorly fitted or top-dose-only effect; inactive = flat fitted curve, though single readings scatter; cell line not stated here;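 note: potency is the fitted concentration of half-maximal effect; % of control where 0% means no effect; nearly all actives have a fitted effect of over 65% in size; a mitochondrial uncoupler was the plate control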
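Readout is PINK1 immunofluorescence, quantified alongside mitochondrial, cell and nuclear markers by laser-scanning microplate cytometry. Cells from a stable line were exposed to compound titrations (5 concentrations) for 24 hours, with CCCP controls.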
TRPML1 agonist: activates the human TRPML1 channel | AID 624414 | Q9GZU1 | TRPML1-expressing cells, Ca2+ dye fluorescence, FDSS; host cell line not named in the record; reference of the full effect not given here | activation, % (no concentration beside the values) | actives 0.12% (n = 410,000); in the data active = activation above about 50%; inconclusive = about 30% to 50%; inactive = below about 30%; note: 0% is about no effect; the text of the record puts the active cut at 80%
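Agonist activity was taken from a 110 s kinetic Ca2+ dye read on the FDSS after pinning compounds onto TRPML1-DL cells. The cells were seeded at 1,500/well with Tet inducer, incubated about 16 h, then dye-loaded at room temperature.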
* = called active by the depositor; ? = inconclusive; . = no result given; & = joins results of further samples; [ ] = remark or other dose.

SMILES	D2 PAM	D2 agonist	Six1-Eya2 blk	TRPML1 blocker	PINK1 expr mod	TRPML1 agonist
Cc1cccc(C)c1OCc1cc(C(=O)N2CCN(c3ccccn3)CC2)no1	-10	5.0	-4	41	-0.8%	1.5
CCc1ccc(NC(=O)C2CCCN(S(=O)(=O)c3cccs3)C2)cc1 (configuration not stated)	-2	2.1	1	20	3.5%	0.6
CCN1CCN(c2cc(C)c3cc(NC(=S)N(C)Cc4ccccc4)ccc3n2)CC1	-32	-0.7	-9	14	2.8%	0.1
CN(C(=O)Cn1cc(C(F)(F)F)ccc1=O)c1c(N)n(Cc2ccccc2)c(=O)[nH]c1=O	-2	-4.1	0	5	4.4%	0.7
COC(=O)c1ccc(CNC(=O)C2CCC(=O)N(CCN3CCOCC3)C2)cc1 (configuration not stated)	-14	-3.1	5	-9	2.8%	0.0
CCS(=O)(=O)c1nc(S(=O)(=O)c2ccc(C)cc2)c(NCCCN(C)C)s1	-5	-1.4	4	-6	1.2%	0.2
CNC(=O)c1ccc(NC(=O)c2cccc(C(F)(F)F)c2)cc1	-47	0.4	-1	12	-1.0%	1.2
CC(=O)Nc1ccc(OCc2cccc3ccccc23)cc1	-3	-1.5	13	1	5.5%	1.1
O=C(CSCc1ccc(Cl)cc1)Nc1ccc(S(=O)(=O)N2CCOCC2)cc1	-13	-0.6	-7	-1	0.7%	0.0
CCCn1cc(SCC(=O)Nc2cc(C)on2)c2ccccc21	-12	-5.0	-5	27	-0.8%	1.8
COc1ccc(NC(=S)Nc2cc(C)ccn2)c(OC)c1	-1	-0.9	-8	-5	0.1%	2.3
N#Cc1ccc(-c2ccccc2)nc1SCC(=O)c1cc2ccccc2oc1=O	-19	-3.6	-4	0	-0.8%	-0.5
O=[N+]([O-])c1cc(C(F)(F)F)ccc1Sc1ccc2ccccc2n1	-16	-1.3	?	-6	2.0%[38.3 µM]	2.3
O=C(COC(=O)c1ccccc1NC(=O)c1ccco1)NC1CCCCC1	-16	-3.3	1	46	1.3%	1.2
COc1cccc(NC(=O)COc2ccc(C(=O)N3CCN(C)CC3)cc2)c1	-7	0.3	-3	1	-1.3%	-1.2
CCn1cc(C(=O)NCCCO)c(=O)c2cc(F)c(N3CCN(C)CC3)cc21	-6	-4.7	-5	6	-0.6%	1.0
CCCCN(CCCC)Cc1cc(=O)oc2cc(OC)ccc12	-7	-7.1	34	37	16%	1.9
O=C(Nc1ccccc1F)c1c[nH]c(=O)[nH]c1=O	-2	-2.1	4	48	-1.5%	1.0
CCCCCCCCN1C(=O)[C@H](CC(=O)N2CCOCC2)C[C@@]2(C(=O)OCC)CCCC=C12	.	.	1	.	1.0%	-0.4
O=C(Nc1cc(Cl)ccc1-n1cncn1)c1cc(F)c(F)c(F)c1F	16	0.9	-1	-19	-0.1%	-0.7
Cc1cc(C(=O)O)cc(S(=O)(=O)Nc2c(C)nn(C)c2C)c1C	-23	1.5	2	7	-0.4%	0.6
O=C(CC(=O)c1ccccc1)Nc1ccc(Cl)cc1	10	0.4	20	1	?	-0.6
CCCCC(CC)CNC(=O)C1CCCN(S(=O)(=O)c2cnc[nH]2)C1 (configuration not stated)	-6	-2.1	0	-11	0.1%	-0.1
C=CCn1c(-c2ccc(Cl)cc2)c[nH]c1=S	-8	1.3	-4	-6	-1.7%	0.2
Cc1c2cnn(CC(=O)NCc3ccc(F)cc3)c(=O)c2c(C)n1Cc1ccccc1Cl	.	.	.	-9	?	-1.1
COc1cc2c(-c3ccc4cc[nH]c4c3)c(-c3ccc(C#N)cc3)oc(=O)c2cc1OC	5	-2.7	3	8	-0.5%	0.2
CCOC(=O)N1CCN(C(=O)Cc2ccsc2)CC1	-23	-3.3	0	12	-2.0%	-0.7
O=C(Cn1cc(COc2ccc3ccc(=O)oc3c2)nn1)c1ccc(O)cc1	-1	-0.6	-13	-3	1.0%	-0.2
CCCCNC(=O)c1ccc2c(c1)ncn2C1CCCC1	-17	-0.4	0	-23	9.7%[38.3 µM]	-0.1
Cc1ccc2c(c1)C(c1ccc(F)cc1)N(C(=O)C1CC1)CC(=O)N2 (configuration not stated)	-5	-2.8	1	-7	2.4%	-0.6
C=CCSc1nnc2c(n1)OC(c1cccnc1)Nc1ccccc1-2 (configuration not stated)	53*	2.5	-4	-14	0.0%	-0.6
OCC1(CCc2ccccc2)CCN(Cc2ccc3nsnc3c2)CC1	-25	-4.4	2	1	3.2%	0.0
CC(=O)Nc1ccc(S(=O)(=O)Nc2ccc(Cc3ccncc3)cc2)cc1	-5	-4.7	8	-19	-2.9%	0.7
O=C1CN(C(=O)c2cccc([N+](=O)[O-])c2)CC(=O)N1	-2	-0.2	1	-15	-0.6%	0.3
Clc1ccc(Nc2nc(-c3ccncc3)cs2)cc1	-1	0.3	-1	3	-0.4%	1.6
COc1ccccc1C(=O)Nc1nnc(S(=O)(=O)N2CCCCCC2)s1	-25	0.5	7	24&35	3.0%&2.7%	-0.3&1.5
CC(NC(=O)C(=O)NCc1cccs1)c1ccccc1 (configuration not stated)	-1	3.1	5	.	-0.5%	.
O=C(CN1C(=O)C(c2ccc(F)cc2)=NC12CCCCCC2)Nc1ccccc1Cl	.	.	.	-14	1.6%	0.8
Cc1ccc2ncc(C(=O)NC(C)c3ccccc3)c(=O)n2c1 (configuration not stated)	.	.	.	7	-2.3%	-0.9
COc1cc(Cl)c(C)cc1NC(=O)c1cnc(N2CCOCC2)c2ccccc12	.	.	.	-30	3.0%	?
COc1ccc(C(O)c2nc(-c3cc(F)cc(F)c3)cs2)cc1 (configuration not stated)	-5	4.4	10	.	4.1%	-0.3
CCOc1cccc(-c2c(C(=O)N/N=C(\C)c3cccs3)nnn2-c2nonc2N)c1	2	-4.9	-1	6	-0.7%	0.1
Cc1ccc(S(=O)(=O)N2CCCCC2)cc1C(=O)N1C(C)CCCC1C (configuration not stated)	1	1.6	8	15	1.0%	0.0
Cc1ccc(C(=O)NCC2(c3ccccc3)CCCC2)cc1	-13	-1.3	15	-18	-0.8%	-0.7
CCN1CCN(c2nc3c(c(=O)[nH]c(=O)n3C)n2CCSc2nc3ccccc3s2)CC1	-12	-2.4	2	6	2.1%	-0.1
COCc1c(C(=O)N2CCc3ccccc32)oc2ccccc12	-5	10	6	14	2.5%	1.8
Cc1nc(Oc2cccc(Cl)c2)c2oc3ccccc3c2n1	-11	-4.5	18	10	3.5%	2.6
COc1ccc(C2CC(c3ccccc3)=NN2C(=O)CSc2ncccn2)cc1 (configuration not stated)	-14	-5.3	-7	-4	-1.5%	-0.3
Cc1[nH]ncc1Nc1ccccc1C(C)C	-5	-7.1	1	.	0.6%	-0.5
CCOC(=O)N1CCN(C(=O)CSc2nnc(COc3ccccc3)o2)CC1	0	0.5	0	8	0.2%	-0.1
O=C(Nc1ccccc1Cl)c1cccs1	12	-0.1	-1	-9	-3.6%	-0.3
CC(C)(Oc1ccc(Cl)cc1)C(=O)Nc1cccnc1	-21	-3.9	-4	9	0.1%	-1.0
O=C1C=C(N2CCN(C(=O)c3ccccc3)CC2)C2(CCCCC2)O1	3	-3.9	5	1	-0.3%	-0.4
Cn1c(=O)c2c(nc(C(O)c3ccccc3)n2C)n(C)c1=O (configuration not stated)	-7	-1.8	0	1	2.7%	0.6
CCc1nc2c(OCc3ccc(C#N)cc3)cccn2c1N(C)C(=O)c1cccs1	0	-4.2	4	.	1.2%	0.0
CSc1ccccc1-c1nnc(NC(=O)c2ccc3c(c2)OCCO3)o1	.	.	.	-3	-0.5%	0.5
Cc1cc(-c2ccc(C)c(S(=O)(=O)Nc3ccc(S(N)(=O)=O)cc3)c2)on1	-1	4.8	-3	-11	1.8%	-0.5
COc1ccc(C2=NOC(C(=O)N3CCCc4ccccc43)C2)cc1 (configuration not stated)	-7	-1.0	9	18	-2.3%[38.3 µM]	3.0
Cc1ccc(OCCN(C)C(=O)C2CCC(=O)N(CC3CCCCC3)C2)cc1 (configuration not stated)	-11	7.4	4	21	-0.9%	0.2
COc1ccc(C(=O)c2c3ccc(OC)cc3[n+]([O-])n2Cc2ccc(C(N)=O)cc2)cc1	-5	4.0	-9	2	-1.2%	0.4
(further entries)
SMILES	D2 PAM	D2 agonist	Six1-Eya2 blk	TRPML1 blocker	PINK1 expr mod	TRPML1 agonist
c1ccc(Cc2cc[n+](Cc3ccccn3)cc2)cc1	-2	-1.9	1	-10	1.4%	0.5
Cc1c(C)[n+](=O)c(-c2cccs2)c(C)n1[O-]	20	0.0	4	15	0.8%	0.2
CCCCN(C(=O)CSc1cc(C)c2ccccc2n1)c1c(N)n(Cc2ccccc2)c(=O)[nH]c1=O	-11	-0.4	-19	16	0.8%	-0.4
CCOC(=O)c1ccc(N2CCN(c3cc(Cl)ccc3C)CC2)c(NC(=O)Nc2cccc(OC)c2)c1	.	.	.	9	0.0%	-0.1
COc1cccc(N2CC(=O)Nc3c(oc4nc(-c5ccccc5)cc(C)c34)C2=O)c1	-17	-5.1	-6	10	5.2%	-0.5
COc1ccc(N2C(=O)CC(Nc3ccc(N4CCOCC4)cc3)C2=O)c(OC)c1 (configuration not stated)	-8	1.9	-1	-16	1.8%	0.2
O=c1c(-c2ccccc2)c(O)c2ccccc2n1-c1ccccc1	-4	-1.2	-9	15	-0.4%	-1.2
CCOC(=O)N1CCN(C(=O)CC(C(=O)N2CCc3ccccc32)n2ccnc2)CC1 (configuration not stated)	14	3.1	1	-9	0.3%[38.3 µM]	2.3
CCc1ccc(CNC(=O)C2CCCN(S(=O)(=O)N(CC)c3ccccc3)C2)cc1 (configuration not stated)	-12	-2.7	4	-17	-0.3%	-0.5
COc1ccc(Cl)c(Cn2c(NCc3ccccn3)nc3c2c(=O)n(C)c(=O)n3C)c1	-28	1.0	-19	-12	-0.9%	0.1
O=c1ccc2c(ccc3ncccc32)o1	-6	-1.5	-11	-6	-0.2%	-0.7
Cc1ccccc1CN1CCCOCCS1(=O)=O	0	-2.2	3	-4	1.3%	-0.7&-0.4
O=C(CSc1nc(O)cc(=O)n1-c1ccccc1)c1ccc(Br)cc1	0	-3.2	0	2	-0.5%	0.0
COc1ccc(Cc2c[nH]c(=O)[nH]c2=O)cc1	-4	-1.0	-1	7	-1.8%	0.3
O=C(N/N=C/c1cccc2nccnc12)c1ccccc1O	-14	-2.2	-89*	.	0.0%	.

Four compounds picked at random from those above, as already listed:
SMILES	D2 PAM	D2 agonist	Six1-Eya2 blk	TRPML1 blocker	PINK1 expr mod	TRPML1 agonist
COc1ccc(Cc2c[nH]c(=O)[nH]c2=O)cc1	-4	-1.0	-1	7	-1.8%	0.3
O=c1ccc2c(ccc3ncccc32)o1	-6	-1.5	-11	-6	-0.2%	-0.7
Cc1c(C)[n+](=O)c(-c2cccs2)c(C)n1[O-]	20	0.0	4	15	0.8%	0.2
COc1ccc(N2C(=O)CC(Nc3ccc(N4CCOCC4)cc3)C2=O)c(OC)c1 (configuration not stated)	-8	1.9	-1	-16	1.8%	0.2
